Six1-Eya2 blk: inhibitors of human Six1/Eya2 interaction; Q15475+O00167; AlphaScreen GST-Six1/His-Eya2 binding, biochemical; active compounds read low; control for the full effect not named in the record; activity change, % (test concentration not listed); hit rate 0.56% among 360,000; in the data active = activity change below about -65%; inconclusive = about -30% to -65%; inactive = above about -30%; note: % is set by controls: 0 for no effect and ±100 for the full control effect
Target sequence (O00167 whole entry, looked up): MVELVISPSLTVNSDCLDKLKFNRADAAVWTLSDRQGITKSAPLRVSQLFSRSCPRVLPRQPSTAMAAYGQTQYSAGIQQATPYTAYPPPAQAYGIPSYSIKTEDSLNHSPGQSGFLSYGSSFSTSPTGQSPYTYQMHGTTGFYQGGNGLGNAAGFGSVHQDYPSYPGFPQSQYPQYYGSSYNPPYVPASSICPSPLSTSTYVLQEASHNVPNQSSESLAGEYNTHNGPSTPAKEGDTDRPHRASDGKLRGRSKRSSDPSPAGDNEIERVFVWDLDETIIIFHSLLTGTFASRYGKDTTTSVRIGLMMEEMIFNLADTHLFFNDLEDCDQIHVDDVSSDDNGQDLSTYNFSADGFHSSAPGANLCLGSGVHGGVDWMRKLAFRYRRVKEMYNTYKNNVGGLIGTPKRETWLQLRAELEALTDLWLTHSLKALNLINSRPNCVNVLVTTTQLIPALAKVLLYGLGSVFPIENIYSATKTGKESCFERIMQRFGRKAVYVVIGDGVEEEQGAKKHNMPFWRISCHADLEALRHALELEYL
Target sequence (Q15475 whole entry, looked up): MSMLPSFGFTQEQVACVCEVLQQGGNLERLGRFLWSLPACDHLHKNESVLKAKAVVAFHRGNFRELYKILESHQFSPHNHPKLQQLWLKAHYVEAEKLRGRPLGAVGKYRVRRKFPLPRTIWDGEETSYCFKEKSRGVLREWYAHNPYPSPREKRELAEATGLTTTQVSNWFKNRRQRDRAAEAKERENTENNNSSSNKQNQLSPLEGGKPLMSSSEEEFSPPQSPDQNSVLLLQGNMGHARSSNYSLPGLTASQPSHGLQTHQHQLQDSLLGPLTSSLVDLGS
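Homogeneous AlphaScreen proximity assay pairing GST-Six1 with His-tagged Eya2 (added as 5X mix: 250 nM and 500 nM) in 50 mM Tris pH 8.0, 300 mM NaCl, 1 mM TCEP. Glutathione donor and nickel acceptor beads; 1 h, 37 °C, dark.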
gsp antag: gsp mutant antagonism; AID 624288; gsp-mutant cells, cAMP HTRF, 30 min; control for the full effect not named in the record; Potency, µM (highest dose often 76.9 µM), for the others: top-dose activity change, negative = inhibition, most hits filed as inhibitors; hit rate 0.4% among 340,000; active = falling curve of any shape with a large fitted effect; inconclusive = falling curve, mostly with a smaller effect; inactive = flat or rising curve; cell line not stated here;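 note: intracellular cAMP measured with PDE inhibitor Ro 20-1724 present during compound exposure; potency is the fitted concentration of half-maximal effect; % is set by controls: 0 for no effect and ±100 for the full control effect; nearly all actives have a fitted effect of over 65% in size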
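HTRF cAMP read-out (cAMP-d2 plus anti-cAMP antibody-K in lysis buffer, 30 min RT). Before lysis, cells are exposed to compounds with […] for 30 min at 37C in DPBS containing Ca/Mg, BSA and Tween 20.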
gsp agonist: gsp mutant agonism. AID 624287. Potency, µM (series often up to 76.9 µM), for inactives: at the top dose activation (cAMP increase), usual class: activators. hit rate 0.13% among 340,000. gsp mutant cells, cAMP HTRF, 30 min; control for the full effect not named in the record; active = well fitted activation curve with a large enough effect; inconclusive = small, poorly fitted or top-dose-only effect, or another doubt; inactive = no such curve, though single readings can be large or run the other way; cell line not stated here;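 note: phosphodiesterase inhibitor Ro 20-1724 added with compounds to block cAMP breakdown; potency is the fitted concentration of half-maximal effect; nearly all actives have a fitted effect of over 60% in size; about a fifth of the inactives were tested at one dose only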
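Cells in DMEM/10% FBS with G418 were pretreated with compounds in DMSO plus […] (300 uM stock) for 30 min at 37C. cAMP was measured by HTRF (cAMP-d2 plus anti-cAMP antibody-K) after 30 min at room temperature.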
CtBP-E1A inh: CtBP/E1A binding inhibition | AlphaScreen GST-E1A/His-CtBP binding, 1536-well; active compounds read low; control for the full effect not named in the record | activity change, % (test concentration not listed) | hit rate 0.49% among 340,000; in the data active means activity change below about -65%; inconclusive means about -30% to -65%; inactive means above about -30%; note: % is set by controls: 0 for no effect and ±100 for the full control effect
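Steps: dispense buffer (Tris pH 8.0, NaCl 300 mM, TCEP 1 mM, BSA, Tween 20); add 5X protein mix (GST-E1A, His-CtBP, 125 nM each); pin 23 nL compound; 2 h at 37 °C, dark; add 5X beads (50 ug/mL); 1 h; read.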
D2 agonist: agonists of human D2 dopamine receptor (beta-arrestin); P14416; DiscoveRx PathHunter D2 beta-arrestin, luminescence, 90 min; 100% = 57 uM dopamine signal; activation, % (test concentration not listed); hit rate 0.084% among 360,000; in the data active = activation above about 40%; inconclusive = about 15% to 40%; inactive = below about 15%; note: compound concentration not given in the record; the text of the record calls up to 30% inactive
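Agonist mode: compounds alone added to overnight-plated D2 PathHunter cells for 90 min at 37 C, with 57 uM final dopamine (EC100) defining full response. Beta-arrestin recruitment detected by chemiluminescent reagent, read after 1 h at ambient temperature.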
D2 PAM: positive allosteric modulators of human D2 dopamine receptor. potentiation, % (no concentration beside the values). DiscoveRx D2 beta-arrestin cells, luminescence, 90 min; 100% = 57 uM dopamine signal. AID 624464. P14416. hit rate 0.23% among 360,000; active = potentiation of 50% or more; inconclusive = 30% to 50%; inactive = 30% or less;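 note: compound concentration not given in the record; tested on top of an EC20 dose of dopamine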
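PathHunter beta-arrestin assay in DiscoveRx D2 cells. Compounds were added with an EC20 of dopamine (50 nM final) for 90 min at 37 deg C. Luminescence was read 1 h after detection reagent, with 57 uM dopamine as the EC100 control.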
Active calls of the source: *; ? = inconclusive; · = no result given; [ ] = remark or other dose.

SMILES | Six1-Eya2 blk | gsp antag | gsp agonist | CtBP-E1A inh | D2 agonist | D2 PAM
Cc1ccc(S(=O)(=O)N(CCC(=O)O)Cc2ccc(Cl)cc2)cc1 | 4 | -6% | -13% | 9 | -1.7 | -15
CCn1ncc(Br)c1C(=O)N(C)C12CC3CC(CC(C3)C1)C2 | 1 | -11% | 5% | 5 | 1.7 | 7
Cc1cc(O)c(C(C)C)cc1NS(=O)(=O)c1ccccc1 | -1 | -14% | -54%[inhibitor] | -3 | 3.8 | 5
O=C(O)/C=C\c1cn(-c2ccccc2)nc1-c1cc2ccccc2o1 | 13 | -151% | -16%[15.4 µM] | -4 | -4.2 | -20
COc1ccc(COC(=O)CCS(=O)(=O)c2ccc(C)cc2)cc1F | 18 | -4% | -20% | 7 | 2.4 | -6
O=C(O)CN1C(=O)C2C3CC(C2C1=O)C1C(c2ccc(F)cc2)c2sc(=O)[nH]c2SC31 (configuration not stated) | 1 | -1% | -3% | -1 | -0.1 | -5
O=C(NCc1cccnc1)NC(C(F)(F)F)C(F)(F)F | 1 | 2% | -11% | 5 | 0.5 | ?
O=C(COc1ccccc1)Nc1nnc(-c2ccc(F)cc2)o1 | ? | -7% | 13% | ? | -3.8 | -3
CCCn1nnc(NC(=O)c2cc3ccccc3o2)n1 | -4 | 0% | 15% | -18 | 1.7 | -15
CC(O)c1nc2ccccc2n1C(C)c1ccccc1 (configuration not stated) | 2 | 1% | ? | · | -3.7 | -14
O=C(CSc1ccccn1)Nc1cccc(NC(=O)CSc2ccccn2)n1 | -1 | 3% | 5% | -3 | -0.4 | -2
CC1(C)OC2C(O1)[C@@H](CO)O[C@H]2n1cnc2c(N)ncnc21 (some centres not stated) | 4 | 1% | -48%[inhibitor] | 5 | -4.3 | 0
O=C(CCc1ccc(S(=O)(=O)NCc2ccccc2)cc1)NCc1ccc2c(c1)OCO2 | -5 | -3% | 1% | -2 | 2.9 | -3
COc1ccc(CCNC(=O)C2CCC(=O)N2Cc2ccccc2Cl)cc1OC (configuration not stated) | -2 | 4% | -2% | · | -1.1 | -11
O=C1S/C(=C\c2ccccn2)C(=O)N1Cc1ccccc1F | 6 | 0% | 17% | -2 | 0.8 | -9
CCn1cc([N+](=O)[O-])c(C(=O)Nc2ccn(C34CC5CC(CC(C5)C3)C4)n2)n1 | -1 | -2% | 0% | -3 | -2.1 | 15
S=c1[nH]nc(-c2cccnc2)n1/N=C/C=C/c1ccco1 | -4 | 2% | ? | 3 | 8.5 | 16
COc1ccc(-c2cc(C(=O)NCCN3CCOCC3)c3ccccc3n2)cc1 | -2 | 9% | 4% | -1 | -2.1 | -22
CSc1cccc(NC(=O)CN(C)S(=O)(=O)c2ccc(F)cc2)c1 | 10 | 3% | -19% | -2 | -1.7 | -8
O=C(COC(=O)C1CC(=O)N(Cc2ccco2)C1)c1ccc(OC(=O)c2ccccc2)cc1 (configuration not stated) | ? | -1% | 1% | 1 | -0.2 | -1
CCOc1ccc(N(CC(=O)OC)S(=O)(=O)c2ccc3c(c2)n(C)c(=O)c(=O)n3C)cc1 | 5 | -7% | -5% | 5 | 7.9 | -3
Cc1ccc(CN(C)CCc2ccccn2)cc1 | -1 | 18% | -3% | 7 | 2.5 | -8
O=C1CN(C(=S)Nc2ccc(OC(F)F)cc2)CCN1 | 7 | · | -9%[15.4 µM] | -10 | 2.8 | 5
COc1ccc(C(=O)CNc2ccccc2Br)cc1 | 37 | -4% | -40%[inhibitor][15.4 µM] | 27 | -3.6 | -9
O=C(O)c1ccc(Cn2cc(/C=C\[N+](=O)[O-])c3ccccc32)o1 | 1 | 0% | 9% | · | -5.8 | -26
CCN1C(=O)C2(SC(NC(C)=O)=NN2C(C)=O)c2cc(C)ccc21 (configuration not stated) | 8 | 2% | -65%[inhibitor] | 5 | 1.6 | -9
CCC(=O)N1c2ccc(S(=O)(=O)CCC(=O)Nc3nccs3)cc2CC1C (configuration not stated) | 0 | -8% | 32% | 5 | -5.0 | -23
CC1CCN(C(=O)c2ccc(S(=O)(=O)N(C)C)cc2)C(C)C1 (configuration not stated) | 5 | 0% | -26% | 4 | -0.5 | -11
Cc1ccc(Cl)cc1-c1cc(C(=O)NCc2ccco2)[nH]n1 | -8 | · | · | -5 | -3.5 | -7
Cc1ccccc1-c1nc(CN2CCC(C(=O)NCc3ccco3)CC2)c(C)o1 | -7 | 11% | 4% | -5 | 0.0 | -33
COC(=O)/C(=C\Nc1ccc(Oc2ccc(F)cc2F)nc1)NC(=O)c1ccccc1 | -10 | 11% | ? | -7 | 0.4 | -4
CCOc1cc(NC(=O)C2CC2)c(OCC)cc1NC(=O)c1ccccn1 | -7 | -1% | 1% | 0 | -1.5 | -18
N#Cc1ccc(-c2ccccc2)nc1SCC(=O)c1cccc(Cl)c1 | 17 | 0% | 29% | 7 | -2.8 | -4
CCCn1nc(C(=O)NCCN2CCOCC2)c2ccccc2c1=O | 3 | 0% | ? | -2 | -2.4 | -13
C=CCn1c(=O)c2ccccc2n2c(SCc3c(C(=O)OCC)oc4ccccc34)nnc12 | 1 | 5% | 9% | -9 | -0.9 | -13
O=C(COC(=O)CCN1C(=O)C2CC=CCC2C1=O)NCCc1ccc(F)cc1 (configuration not stated) | 21 | -4% | 0% | · | -3.1 | -5
O=C(CN1c2ccccc2Sc2ccccc21)NNC(=S)Nc1ccc(Cl)cc1 | ? | -31% | 5%[15.4 µM] | -22 | -12 | -12
CCNC(=O)C1(C)CCCN(C(=O)c2cc(-c3cccs3)oc2C)C1 (configuration not stated) | 0 | · | · | -2 | -6.3 | -3
CC(=O)c1ccc(Cc2ccccc2)cc1 | 12 | 15% | -44%[inhibitor] | 15 | -5.4 | -1
COc1cccc(NC(=O)COc2coc(CN3CCN(c4ccccc4)CC3)cc2=O)c1 | 3 | 5% | 4% | -24 | 3.9 | -8

Five compounds already listed, ordered by the value under Six1-Eya2 blk, rising:
SMILES | Six1-Eya2 blk | gsp antag | gsp agonist | CtBP-E1A inh | D2 agonist | D2 PAM
CCOc1cc(NC(=O)C2CC2)c(OCC)cc1NC(=O)c1ccccn1 | -7 | -1% | 1% | 0 | -1.5 | -18
CCNC(=O)C1(C)CCCN(C(=O)c2cc(-c3cccs3)oc2C)C1 (configuration not stated) | 0 | · | · | -2 | -6.3 | -3
C=CCn1c(=O)c2ccccc2n2c(SCc3c(C(=O)OCC)oc4ccccc34)nnc12 | 1 | 5% | 9% | -9 | -0.9 | -13
CCCn1nc(C(=O)NCCN2CCOCC2)c2ccccc2c1=O | 3 | 0% | ? | -2 | -2.4 | -13
O=C(COC(=O)CCN1C(=O)C2CC=CCC2C1=O)NCCc1ccc(F)cc1 (configuration not stated) | 21 | -4% | 0% | · | -3.1 | -5

New compounds follow.
SMILES | Six1-Eya2 blk | gsp antag | gsp agonist | CtBP-E1A inh | D2 agonist | D2 PAM
Cc1ccc(OCC(=O)N(Cc2ccccc2)C(C)(C)C)c([N+](=O)[O-])n1 | 3 | -13% | 9% | -8 | 0.3 | -3
O=C(COc1cccc([N+](=O)[O-])c1)N/N=C/c1ccco1 | 11 | 0% | 1% | · | -5.2 | -45
Cc1ccc(N=Cc2cc(Br)cc(Cl)c2O)cc1 | -3 | ? | -19% | 4 | -7.9 | -6
Cc1c(-c2ccccc2)sc2nc[nH]c(=S)c12 | -2 | ? | 15%[15.4 µM] | -5 | -5.5 | -7
Cc1cc(C)nc(SCC(=O)N2CCc3ccccc32)n1 | 12 | -1% | 13% | 6 | -2.4 | -2
CN1CCN(C(=O)/C(C#N)=C/c2ccc(F)cc2)CC1 | -1 | 2% | -6%[15.4 µM] | 7 | -8.0 | -1
CC1(C)CC(=O)c2cn3ncnc3nc2C1 | 2 | -8% | 24% | 3 | -0.9 | -4
COC(=O)C1=C(C(C)=O)C(c2ccc(C)cc2)n2nnnc2N1 (configuration not stated) | 7 | -13% | -24% | 0 | -1.9 | -15
Cc1ccc(N(CC#N)C(=O)CS(=O)(=O)c2cccc([N+](=O)[O-])c2)cc1 | 5 | -7% | 0% | 6 | 0.1 | 7
Cn1cccc1/C=N/n1cnnc1 | -15 | 5% | -19% | -21 | -1.7 | -3
Cc1cc(C)c(NC(=O)COC(=O)Cn2nc(-c3ccccc3)oc2=O)c(C)c1 | 12 | -2% | -9%[15.4 µM] | -2 | -4.9 | -2
CCN1C(=O)/C(=C2\Sc3ccccc3N2CC)OC1=S | 4 | -12% | -4%[15.4 µM] | -10 | -3.6 | -7
CCc1noc(C)c1C(=O)Nc1ccc(F)c(F)c1 | -1 | 8% | -5%[15.4 µM] | 12 | -0.5 | 13
Cc1ccc(S(=O)(=O)N2CCC(C(=O)N3CCCC(C(F)(F)F)C3)CC2)cc1C (configuration not stated) | 0 | 2% | -74%[inhibitor] | -17 | -3.5 | 22
CCc1ccc(OCC(=O)NNC(=O)c2cnccn2)c(Br)c1 | -8 | 1% | 28% | -16 | -4.7 | -4
Cc1ccc(NC(=O)Cc2cn3ccsc3n2)nc1 | 0 | 0% | ? | 0 | -0.8 | -19
CCOC(=O)C1CCCCN1Cc1cccc(OC)c1OC (configuration not stated) | 4 | 8% | -12% | 5 | 2.4 | -13
COc1cc(C(=O)NC(=S)Nc2ccc(NC(=O)c3ccco3)cc2)cc(OC)c1OC | 3 | 7% | 0% | 4 | 5.2 | -6
CC1CN(C(=O)Nc2ccc3snnc3c2)c2ccccc21 (configuration not stated) | -6 | -21% | -78%[inhibitor] | 4 | 3.0 | 0

Some of the entries so far, field by field:
CCc1noc(C)c1C(=O)Nc1ccc(F)c(F)c1
  Six1-Eya2 blk: -1
  gsp antag: 8%
  gsp agonist: -5%[15.4 µM]
  CtBP-E1A inh: 12
  D2 agonist: -0.5
  D2 PAM: 13
Cc1cc(C)c(NC(=O)COC(=O)Cn2nc(-c3ccccc3)oc2=O)c(C)c1
  Six1-Eya2 blk: 12
  gsp antag: -2%
  gsp agonist: -9%[15.4 µM]
  CtBP-E1A inh: -2
  D2 agonist: -4.9
  D2 PAM: -2
